Screening results as filed in PubChem.
Ecoli growth: blocks Escherichia coli growth | OD600, 23 h; active compounds read low | OD600 absorbance (test concentration not listed) | hit rate 0.21% among 330,000;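 active = OD600 absorbance below the run mean of sample wells minus 3.6 SD, in any replicate, cut at about 0.56 in these data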;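 also: stock transfer was 300 nL into about 60 µL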
HNF4A DNA FP: change in binding of human HNF4 alpha to DNA | P41235 | HNF4a-FITC DNA binding, fluorescence polarization, 1 h | activity change, % at 10 µM | hit rate 0.3% among 360,000; in the data active = activity change above about 30%, passing the limit was not always enough;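 also: controls were the assay level and a saturating level of protein; the project sought stronger binding though the title names inhibitors; some compounds called inactive have numbers as strong as hits; positive values seem to mean higher polarization but the record does not say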
FGF22 binding: binders of recombinant human FGF22 by thermal shift. Q9HCT0. SYPRO orange fluorescence; percent of sucrose octasulfate shift, DMSO zero. calls only at 9.99 µM. hit rate 1.5% among 340,000;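 active = melting point raised past a set limit in the mean and every replicate; three in four hits are not shown here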
Target sequence (Q9HCT0 whole entry, looked up): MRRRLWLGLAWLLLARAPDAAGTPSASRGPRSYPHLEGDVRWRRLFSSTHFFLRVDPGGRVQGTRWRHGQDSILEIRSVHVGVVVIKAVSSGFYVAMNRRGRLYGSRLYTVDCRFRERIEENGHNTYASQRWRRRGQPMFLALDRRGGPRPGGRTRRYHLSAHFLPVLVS
UCH37 inh: inhibitors of human deubiquitinating enzyme UCH37 | hit rate 0.33% among 330,000 | purified proteasome/UCH37, Ub-AMC cleavage fluorescence | inhibition, % (no concentration beside the values);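 active = mean of two replicates above 20%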;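 also: 0% = compound-free wells with enzyme and 100% = wells lacking proteasome; stock transfer was 100 nL into about 20 µL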
Target sequence (Q9Y5K5 whole entry, looked up): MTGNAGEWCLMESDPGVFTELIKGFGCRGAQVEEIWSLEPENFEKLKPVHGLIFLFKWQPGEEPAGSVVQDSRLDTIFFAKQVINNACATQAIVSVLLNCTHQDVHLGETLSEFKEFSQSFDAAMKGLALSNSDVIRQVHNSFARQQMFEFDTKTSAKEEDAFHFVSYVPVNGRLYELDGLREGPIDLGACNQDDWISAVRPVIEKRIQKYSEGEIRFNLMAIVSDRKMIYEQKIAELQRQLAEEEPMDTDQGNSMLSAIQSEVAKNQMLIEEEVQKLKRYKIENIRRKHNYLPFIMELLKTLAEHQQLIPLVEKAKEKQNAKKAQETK
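Reagent: Ub-AMC substrate; assay system: Proteasome-associated human UCH37 deubiquitinase; controls: no-proteasome and no-compound wells; read-out: % inhibition of Ub-AMC cleavage fluorescence; timing: 30 min preincubation with enzyme, 25 min cleavage at room temperature; signal: AMC fluorescence from Ub-AMC cleavage, excitation 355 nm, emission 460 nm; buffer or medium: Tris-HCl pH 7.4 plus ovalbumin, ATP-MgCl2, DTT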
ALR H2O2 inh: blocks human ALR sulfhydryl oxidase activity; P55789; purified ALR, DTT oxidation, H2O2 HRP-luminol luminescence; inhibition, % (no concentration beside the values); hit rate 3.8% among 290,000;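 active = mean and each replicate at 75% or more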;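 also: stock transfer was 7.5 nL into about 7.5 µL; 0% = neutral wells and 100% = wells with inactivated enzyme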
Target sequence (P55789 whole entry, looked up): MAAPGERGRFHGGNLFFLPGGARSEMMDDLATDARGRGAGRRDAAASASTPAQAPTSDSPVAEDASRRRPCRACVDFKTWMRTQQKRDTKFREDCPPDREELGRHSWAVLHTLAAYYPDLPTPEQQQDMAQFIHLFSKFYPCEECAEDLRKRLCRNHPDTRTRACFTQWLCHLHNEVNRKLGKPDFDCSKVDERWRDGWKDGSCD
rRNA inh HTS: inhibitors of bacterial rRNA selective over humanized ribosomes | E. coli WT GFP vs humanized-ribosome RFP mutants, fluorescence, 24 h; active compounds read low; DMSO median 0, no signal -100 | GFP signal change (wild-type ribosome), % (no concentration beside the values) | hit rate 1.6% among 350,000 | AID 720706;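 active = significant combined selectivity score with lowered wild-type GFP, culture density cut under 30%, mutant RFP and density less affected; inactive = any of these conditions unmet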; also: one replicate is shown; some compounds called inactive have numbers as strong as hits
Beta2AR agonist: human beta-2 adrenergic receptor agonism by FAP | P07550 | Am2.2-beta2AR cells, FAP receptor internalization, flow cytometry; reference of the scale not given here | response, % (concentration not given with the values) | hit rate 0.43% among 340,000 | AID 504454;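 active = response above a set limit, near 3 SD of response in nonfluorescent compounds, cut at about 42% in these data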;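 also: stock transfer was 100 nL into about 11 µL; a reference agonist was the positive control; negative values mostly stem from fluorescent compounds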
rRNA inh HTS OD600: further read-out of rRNA inh HTS, marked with its call; OD600 change, %; measured here: OD600 growth;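 optical density of the mix in the first replicate; 0 = DMSO median and -100 = no signal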
rRNA inh HTS RFP: further read-out of rRNA inh HTS, marked with its call; RFP signal change, %; measured here: RFP humanized mutant strains;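 first replicate; 0 = DMSO median and -100 = no signal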
* hit, by the source's call. This is a subset; the hit share may differ from the screen's.

Results for Cc1cccc(NC(=O)C2CC(=O)N(c3ccccc3)C2)c1C (stereo not drawn) ?
Ecoli growth: 0.74; HNF4A DNA FP: -0.8; UCH37 inh: 3.7; ALR H2O2 inh: 5; Beta2AR agonist: 6

How did N#CC(C#SN)=C1CCCCC1 do in these assays?
Ecoli growth: 0.69; HNF4A DNA FP: -0.7; UCH37 inh: 1.0; ALR H2O2 inh: 30; Beta2AR agonist: -9

How did Nc1ccc(-c2nc3ccc([N+](=O)[O-])cc3[nH]2)cc1 do in these assays?
Ecoli growth: 0.58; HNF4A DNA FP: 2.4; UCH37 inh: 7.7; ALR H2O2 inh: 97*; rRNA inh HTS: -5; Beta2AR agonist: 9; rRNA inh HTS OD600: 2; rRNA inh HTS RFP: -3.9

Results for COCCNC(=O)c1ccc(CS(=O)(=O)c2c(Cl)cccc2Cl)o1 ?
Ecoli growth: 0.73; HNF4A DNA FP: 1.3; FGF22 binding: inactive; UCH37 inh: 2.1; ALR H2O2 inh: 0; rRNA inh HTS: 9; Beta2AR agonist: 5; rRNA inh HTS OD600: 7; rRNA inh HTS RFP: 1.2

Results for Cc1nn(CC(C)C)c(Cl)c1C(=O)NCC(C)(C)N1CCOCC1 ?
HNF4A DNA FP: 1.0; FGF22 binding: inactive; rRNA inh HTS: 10; rRNA inh HTS OD600: 21; rRNA inh HTS RFP: -2.7

Results for S=C(Nc1ccccc1)Nc1ccc(Cl)cc1Cl ?
Ecoli growth: 0.67; HNF4A DNA FP: 2.6; UCH37 inh: 2.3; Beta2AR agonist: -2

Results for Cc1nn(CCCC(=O)NCc2ccc(Cl)cc2)c(C)c1[N+](=O)[O-] ?
Ecoli growth: 0.68; HNF4A DNA FP: -2.7; UCH37 inh: 5.5; ALR H2O2 inh: -2; Beta2AR agonist: -4

What do the screens show for `CC(C)Cc1n[nH]c(=O)c2c1nnn2Cc1ccccc1F`?
Ecoli growth: 0.65; HNF4A DNA FP: -0.5; FGF22 binding: inactive; UCH37 inh: -3.1; ALR H2O2 inh: -1; rRNA inh HTS: 2; Beta2AR agonist: 11; rRNA inh HTS OD600: 1; rRNA inh HTS RFP: 0.3

Results for CCc1nc2c(OCc3ccc(S(C)(=O)=O)cc3)cccn2c1N(C)C(=O)c1ccccc1F ?
HNF4A DNA FP: 2.6; FGF22 binding: inactive; rRNA inh HTS: 7; rRNA inh HTS OD600: 12; rRNA inh HTS RFP: 12

Results for COCCCNC(=O)c1ccccc1-c1cc(C)no1 ?
Ecoli growth: 0.68; HNF4A DNA FP: -4.7; FGF22 binding: inactive; UCH37 inh: 4.5; ALR H2O2 inh: -3; rRNA inh HTS: -2; Beta2AR agonist: 3; rRNA inh HTS OD600: -1; rRNA inh HTS RFP: 1.4

How did COc1ccc(OC)c(C(=O)c2ccccn2)c1 do in these assays?
Ecoli growth: 0.63; HNF4A DNA FP: -2.6; FGF22 binding: inactive; UCH37 inh: 8.4; rRNA inh HTS: 21; Beta2AR agonist: 2; rRNA inh HTS OD600: 18; rRNA inh HTS RFP: 2.9

How did COc1ccccc1N(Cc1ccccc1)S(=O)(=O)c1cccc(C(=O)NCC2CCCO2)c1 (stereo not drawn) do in these assays?
Ecoli growth: 0.7; HNF4A DNA FP: 1.6; FGF22 binding: inactive; UCH37 inh: 3.4; ALR H2O2 inh: -15; rRNA inh HTS: -48; Beta2AR agonist: -2; rRNA inh HTS OD600: -72; rRNA inh HTS RFP: -12

How did Cn1c(N)c(C(=O)COC(=O)/C=C/c2ccc(OC(F)F)cc2)c(=O)n(C)c1=O do in these assays?
Ecoli growth: 0.7; HNF4A DNA FP: -0.6; FGF22 binding: inactive; UCH37 inh: 3.1; ALR H2O2 inh: -4; rRNA inh HTS: 3; Beta2AR agonist: 3; rRNA inh HTS OD600: 11; rRNA inh HTS RFP: -0.4

Results for COC(=O)CC1(c2cccc3ccccc23)C(=O)c2ccccc2C1=O ?
Ecoli growth: 0.71; HNF4A DNA FP: -3.7; UCH37 inh: 3.2; Beta2AR agonist: 2

What do the screens show for `COCc1c(C(=O)OCC(=O)NCCN2C(=O)CSC2=O)oc2ccccc12`?
Ecoli growth: 0.68; HNF4A DNA FP: 2.9; UCH37 inh: 1.2; ALR H2O2 inh: -8; Beta2AR agonist: 6

Results for Cc1ccnc(NS(=O)(=O)c2ccc(NC(=O)CSc3nc(-c4ccccc4)cc(=O)[nH]3)cc2)n1 ?
Ecoli growth: 0.75; HNF4A DNA FP: -7.5; FGF22 binding: inactive; UCH37 inh: 3.1; ALR H2O2 inh: -14; rRNA inh HTS: 15; Beta2AR agonist: -4; rRNA inh HTS OD600: 9; rRNA inh HTS RFP: 3.0

Results for O=S(=O)(NCc1nnc2c(C(F)(F)F)cc(Cl)cn12)c1ccccc1 ?
Ecoli growth: 0.72; HNF4A DNA FP: 2.7; FGF22 binding: inactive; UCH37 inh: 1.8; ALR H2O2 inh: 1; rRNA inh HTS: 4; Beta2AR agonist: -5; rRNA inh HTS OD600: 13; rRNA inh HTS RFP: 1.3

What do the screens show for `CC(C)NC(=O)CN(C(=O)CCC(=O)Nc1nccs1)c1ccc(C(C)C)cc1`?
Ecoli growth: 0.68; HNF4A DNA FP: 4.9; FGF22 binding: inactive; UCH37 inh: 19; ALR H2O2 inh: -2; rRNA inh HTS: 14; Beta2AR agonist: 0; rRNA inh HTS OD600: 10; rRNA inh HTS RFP: -3.0

How did Cc1cccc(N2CCN(C(=S)NCc3ccco3)CC2)c1C do in these assays?
Ecoli growth: 0.71; HNF4A DNA FP: -2.9; UCH37 inh: 1.0; ALR H2O2 inh: 3; Beta2AR agonist: 8

How did NC(=O)Cn1cc(/C=N\NS(=O)(=O)c2ccc(Cl)cc2)c2ccccc21 do in these assays?
HNF4A DNA FP: 7.4; FGF22 binding: inactive; ALR H2O2 inh: 69; rRNA inh HTS: -11; Beta2AR agonist: 0; rRNA inh HTS OD600: -8; rRNA inh HTS RFP: 4.3

How did CC(C)c1csc(CN2CCN(Cc3ccc(F)cc3)C(CCO)C2)n1 (stereo not drawn) do in these assays?
Ecoli growth: 0.65; HNF4A DNA FP: 2.0; FGF22 binding: inactive; UCH37 inh: 2.2; ALR H2O2 inh: -2; rRNA inh HTS: -13; Beta2AR agonist: 3; rRNA inh HTS OD600: -10; rRNA inh HTS RFP: -0.6

What do the screens show for `CC(=O)OC(C(=O)Nc1ccccc1)C(C)S(=O)(=O)c1ccccc1` (stereo not drawn)?
Ecoli growth: 0.68; HNF4A DNA FP: 0.4; UCH37 inh: 3.8; ALR H2O2 inh: -2; Beta2AR agonist: 4

Results for COc1ccc(C(C)C)cc1S(=O)(=O)N1CCN(c2ccccc2)CC1 ?
Ecoli growth: 0.67; HNF4A DNA FP: -1.1; FGF22 binding: inactive; UCH37 inh: 5.7; ALR H2O2 inh: 1; rRNA inh HTS: -28; Beta2AR agonist: -5; rRNA inh HTS OD600: -32; rRNA inh HTS RFP: -7.2

What do the screens show for `O=C(NCCN1CCOCC1)c1cc(-c2cccc(Cl)c2)on1`?
Ecoli growth: 0.67; HNF4A DNA FP: 1.3; FGF22 binding: inactive; UCH37 inh: 4.2; rRNA inh HTS: -3; Beta2AR agonist: -4; rRNA inh HTS OD600: 8; rRNA inh HTS RFP: -0.2

Results for CCc1ccc(NC(=S)N(Cc2ccc(Cl)cc2)Cc2ccc(C(=O)O)cc2)cc1 ?
Ecoli growth: 0.65; HNF4A DNA FP: -1.5; FGF22 binding: inactive; UCH37 inh: 2.4; ALR H2O2 inh: 6; rRNA inh HTS: -13; Beta2AR agonist: 7; rRNA inh HTS OD600: -3; rRNA inh HTS RFP: -3.5

How did Clc1cccc(Cl)c1CON/C=N/c1ncnc2sccc12 do in these assays?
HNF4A DNA FP: 1.6; ALR H2O2 inh: -9; Beta2AR agonist: 2

What do the screens show for `c1ccc(Cn2cc(CN3CCCO3)c(-c3ccc4c(c3)OCO4)n2)cc1`?
Ecoli growth: 0.63; HNF4A DNA FP: -1.0; FGF22 binding: inactive; UCH37 inh: 3.4; ALR H2O2 inh: 0; rRNA inh HTS: 2; Beta2AR agonist: -7; rRNA inh HTS OD600: -7; rRNA inh HTS RFP: -1.6

How did Cn1nc(C(=O)NNC(=O)C(CCC(N)=O)NS(=O)(=O)c2ccc(Cl)cc2)c2ccccc2c1=O (stereo not drawn) do in these assays?
Ecoli growth: 0.65; HNF4A DNA FP: -2.9; FGF22 binding: inactive; UCH37 inh: 3.0; ALR H2O2 inh: 0; rRNA inh HTS: 3; Beta2AR agonist: 2; rRNA inh HTS OD600: 10; rRNA inh HTS RFP: 1.0

Results for COc1ccc(C(C(=O)NC2CCCCC2)N(C(=O)c2sc(C)nc2C)c2ccc(OC)cc2)cc1 (stereo not drawn) ?
Ecoli growth: 0.61; HNF4A DNA FP: 2.2; FGF22 binding: inactive; UCH37 inh: -0.1; ALR H2O2 inh: -1; rRNA inh HTS: 0; Beta2AR agonist: 5; rRNA inh HTS OD600: 6; rRNA inh HTS RFP: 1.8

How did O=C(Nc1ccc([N+](=O)[O-])cn1)c1cc(-c2cccc(Cl)c2)nc2ccccc12 do in these assays?
Ecoli growth: 0.72; HNF4A DNA FP: 2.2; UCH37 inh: 2.9; Beta2AR agonist: 5

What do the screens show for `CCOC(=O)N1CCN(CC(=O)Nc2ccc(C)c(Br)c2)CC1`?
Ecoli growth: 0.66; HNF4A DNA FP: -1.6; UCH37 inh: 2.8; ALR H2O2 inh: 0; Beta2AR agonist: 4

Results for CC(C)(C)c1nnc(SCC(=O)Nc2ccc(N3CCCCC3)cc2)n1N ?
Ecoli growth: 0.68; HNF4A DNA FP: 2.9; FGF22 binding: inactive; UCH37 inh: 2.5; ALR H2O2 inh: 99*; rRNA inh HTS: 0; Beta2AR agonist: -1; rRNA inh HTS OD600: 6; rRNA inh HTS RFP: 1.6

How did Cc1ccc(S(=O)(=O)N(CC(=O)N2CCOCC2)c2ccccc2F)cc1 do in these assays?
Ecoli growth: 0.69; HNF4A DNA FP: -2.0; FGF22 binding: inactive; UCH37 inh: 4.1; rRNA inh HTS: 6; Beta2AR agonist: 3; rRNA inh HTS OD600: 7; rRNA inh HTS RFP: -1.0

How did COc1ccc(O)c(/C=N/NC(=O)CCC(=O)Nc2ccc(F)cc2)c1 do in these assays?
HNF4A DNA FP: 3.5; FGF22 binding: inactive; ALR H2O2 inh: 4; rRNA inh HTS: 28; Beta2AR agonist: -3; rRNA inh HTS OD600: 15; rRNA inh HTS RFP: 3.5

How did O=C(CN1CCN(Cc2ccccc2)CC1)N/N=C\C=C/c1ccco1 do in these assays?
HNF4A DNA FP: 2.9; FGF22 binding: inactive; ALR H2O2 inh: -20; rRNA inh HTS: 15; Beta2AR agonist: -7; rRNA inh HTS OD600: 19; rRNA inh HTS RFP: 2.7

Results for CCOc1ccc(/C=C/C(=O)N(C)CC(=O)Nc2cccc(F)c2)cc1OCC ?
HNF4A DNA FP: 0.7; FGF22 binding: inactive; ALR H2O2 inh: -25; rRNA inh HTS: 8; Beta2AR agonist: -3; rRNA inh HTS OD600: 12; rRNA inh HTS RFP: 3.0

What do the screens show for `O=C(NS(=O)(=O)c1ccccc1)c1ccccc1`?
Ecoli growth: 0.71; HNF4A DNA FP: 2.3; UCH37 inh: -1.2; ALR H2O2 inh: -5; Beta2AR agonist: 1
